# Ecoli rRNA inh = inhibitors of bacterial rRNA selective over humanized ribosomes; E. coli WT GFP vs humanized-ribosome RFP mutants, fluorescence, 24 h; stronger effect = lower value; DMSO median 0, no signal -100; GFP signal change (wild-type ribosome), % (concentration not given with the values); 350,000 compounds, 1.6% hits;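 active = significant combined selectivity score with lowered wild-type GFP, culture density cut under 30%, mutant RFP and density less affected; inactive = any of these conditions unmet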; note: one replicate is shown; some compounds called inactive have numbers as strong as hits
# Ecoli rRNA inh OD600 = further read-out of Ecoli rRNA inh, marked with its call; OD600 change, %; measured here: OD600 growth;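 optical density of the mix in the first replicate; 0 = DMSO median and -100 = no signal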
# Ecoli rRNA inh RFP = also measured in Ecoli rRNA inh; calls as there; RFP signal change, %; measured here: RFP humanized mutant strains;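 first replicate; 0 = DMSO median and -100 = no signal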
# Numbers without * were called inactive. Only part of the results is shown; the hit share may differ from the screen's.
# Value order: Ecoli rRNA inh RFP | Ecoli rRNA inh | Ecoli rRNA inh OD600
[1] CO[C@@H]1CN(C)C(=O)c2cc(NC(=O)c3ccc(F)cc3)ccc2OC[C@H](C)N(C(=O)CC2CC2)C[C@H]1C
  -1.5 | -1 | 0
[2] C[C@@H]1CN([C@H](C)CO)C(=O)CCCn2nncc2CO[C@@H]1CN(C)Cc1cccnc1
  -2.5 | 0 | 4
[3] C[C@@H]1CN([C@H](C)CO)C(=O)c2cc(NS(=O)(=O)c3ccccc3)ccc2O[C@H]1CN(C)S(=O)(=O)c1ccc(F)cc1
  -1.0 | -4 | -10
[4] CO[C@H]1CN(C)C(=O)c2cc(NS(=O)(=O)c3cn(C)cn3)ccc2OC[C@@H](C)N(C)C[C@@H]1C
  -2.6 | 0 | 1
[5] C[C@@H]1CN([C@@H](C)CO)C(=O)c2cccc(NC(=O)Nc3ccccc3)c2O[C@H]1CN(C)S(=O)(=O)c1cccs1
  -0.9 | -3 | -8
[6] CO[C@@H]1CN(C)C(=O)c2cc(NS(C)(=O)=O)ccc2OC[C@H](C)N(Cc2ccccn2)C[C@H]1C
  -0.7 | 0 | -4
[7] C[C@@H]1CN([C@@H](C)CO)S(=O)(=O)c2ccc(-c3cncnc3)cc2O[C@@H]1CN(C)C(=O)C1CC1
  -2.7 | 3 | 14
[8] COc1ccccc1NC(=O)N1CC(=O)N2[C@H](C1)[C@@H](c1ccc(C#CCC(C)C)cc1)[C@@H]2CO
  23 | -11 | -25
[9] CC(=O)N1[C@H](CN(C(=O)c2ccc(F)cc2)C(C)C)[C@@H](c2ccccc2)[C@@H]1CO
  0.8 | -1 | 0
[10] CC(C)[C@@H]1C/C=C\CCNC(=O)[C@H](C)CC(=O)N1
  -2.2 | 0 | 12
[11] Cc1ccccc1S(=O)(=O)N1C[C@@H]2N[C@H](C1)C2c1ccc(/C=C/c2ccccc2)cc1 (some centres undefined)
  3.6 | 0 | -8
[12] C[C@H](C(=O)N(C)C[C@@H]1OCc2ccccc2-c2ccccc2C(=O)N([C@H](C)CO)C[C@@H]1C)c1ccccc1
  -1.7 | -1 | 2
[13] C[C@H]1CN([C@@H](C)CO)C(=O)c2cc(-c3cccnc3)cnc2O[C@H]1CN(C)C(=O)C1CCCCC1
  -2.0 | 8 | 6
[14] C/C=C/c1ccc2c(c1)O[C@@H](CN(C)C(=O)C1CCC1)[C@@H](C)CN([C@@H](C)CO)S2(=O)=O
  -2.7 | -3 | -1
[15] COc1ccc(C#Cc2ccc3c(c2)[C@H]2[C@H](CCN2Cc2nccs2)[C@H](CO)N3)cc1
  0.7 | -2 | 14
[16] C[C@@H]1CN([C@@H](C)CO)C(=O)c2cccc(NC(=O)C3CCCCC3)c2O[C@H]1CN(C)S(=O)(=O)c1ccc(Cl)cc1
  -0.6 | -2 | -14
[17] C[C@@H]1CCCCO[C@@H](CN(C)Cc2ccncc2)[C@@H](C)CN([C@H](C)CO)C(=O)c2cc(NS(C)(=O)=O)ccc2O1
  -1.3 | 1 | -3
[18] C[C@@H]1CN(C)C(=O)c2cccc([N+](=O)[O-])c2O[C@H]1CN(C)C(=O)OC(C)(C)C
  2.6 | -3 | -9
[19] O=C(Nc1ccccc1F)N1CC(=O)N2[C@@H](CO)[C@@H](c3ccc(-c4ccc(F)cc4)cc3)[C@@H]2C1
  17 | -3 | -4
[20] C[C@@H]1CN(C)C(=O)c2cc([N+](=O)[O-])ccc2O[C@H]1CN(C)C(=O)OC(C)(C)C
  -0.2 | -1 | 4
[21] C[C@H]1CN([C@@H](C)CO)C(=O)c2cccc(NC(=O)Nc3cccc4ccccc34)c2O[C@H]1CN(C)Cc1ccc(-c2ccccc2)cc1
  0.3 | 1 | 4
[22] CCCN1C[C@@H](C)[C@H](OC)CN(C)C(=O)c2cc(NC(=O)c3cccc(OC)c3)ccc2OC[C@@H]1C
  1.2 | -2 | -4
[23] CC(C)C#Cc1ccc2c(c1)O[C@H](CN(C)C(=O)C1CCC1)[C@H](C)CN([C@@H](C)CO)S2(=O)=O
  1.8 | -3 | -14
[24] C[C@H](CO)N1C[C@H](C)[C@@H](CN(C)CC2CC2)Oc2c(NC(=O)CCC(F)(F)F)cccc2C1=O
  2.2 | -1 | 5
[25] CNC(=O)C[C@@H]1CC[C@@H]2[C@@H](COc3ccc(NC(=O)C(C)C)cc3C(=O)N2C)O1
  0.4 | 1 | 5
[26] O=C1N[C@H](Cc2ccccc2)COCc2cn(nn2)CC[C@@H]1Cc1ccc(-c2ccccc2)cc1
  -4.5 | 0 | 6
[27] CCC(=O)Nc1ccc2c(c1)OC[C@H](C)N(C(=O)Cc1cccnc1)C[C@H](C)[C@@H](OC)CN(C)C2=O
  -1.7 | 4 | 9
[28] C[C@H]1CN([C@@H](C)CO)C(=O)c2cc(C#Cc3cccc(F)c3)cnc2O[C@@H]1CN(C)C(=O)C1CCOCC1
  -1.1 | -2 | 1
[29] C[C@@H]1CN([C@@H](C)CO)C(=O)c2cc(C#CC3(O)CCCC3)cnc2O[C@@H]1CN(C)C(=O)C1CC1
  -4.5 | 5 | 21
[30] COc1ccc2c3c(n(C)c2c1)[C@@H](CO)N(C(=O)NC1CCCC1)CC31CN(C)C1
  0.0 | 2 | 13

# 5 compounds drawn at random from the list so far, as already listed:
# Value order: Ecoli rRNA inh RFP | Ecoli rRNA inh | Ecoli rRNA inh OD600
[25] CNC(=O)C[C@@H]1CC[C@@H]2[C@@H](COc3ccc(NC(=O)C(C)C)cc3C(=O)N2C)O1
  0.4 | 1 | 5
[30] COc1ccc2c3c(n(C)c2c1)[C@@H](CO)N(C(=O)NC1CCCC1)CC31CN(C)C1
  0.0 | 2 | 13
[27] CCC(=O)Nc1ccc2c(c1)OC[C@H](C)N(C(=O)Cc1cccnc1)C[C@H](C)[C@@H](OC)CN(C)C2=O
  -1.7 | 4 | 9
[29] C[C@@H]1CN([C@@H](C)CO)C(=O)c2cc(C#CC3(O)CCCC3)cnc2O[C@@H]1CN(C)C(=O)C1CC1
  -4.5 | 5 | 21
[22] CCCN1C[C@@H](C)[C@H](OC)CN(C)C(=O)c2cc(NC(=O)c3cccc(OC)c3)ccc2OC[C@@H]1C
  1.2 | -2 | -4

# (list continues)
# Value order: Ecoli rRNA inh RFP | Ecoli rRNA inh | Ecoli rRNA inh OD600
[31] C[C@@H]1CN([C@H](C)CO)C(=O)CCCn2nncc2CO[C@@H]1CN(C)Cc1ccncc1
  -0.6 | 3 | 1
[32] CO[C@@H]1CN(C)C(=O)c2cc(NC(=O)C3CCCC3)ccc2OC[C@@H](C)N(Cc2ccc(F)cc2)C[C@H]1C
  3.6 | -4 | -2
[33] O=C(c1ccccc1)N1CC(=O)N2[C@H](CO)[C@H](c3ccc(/C=C/c4ccccc4)cc3)[C@H]2C1
  10 | -36 | -57
[34] COc1ccccc1NC(=O)N1CC(=O)N2[C@H](CO)[C@H](c3ccc(C#CCC(C)C)cc3)[C@@H]2C1
  21 | -6 | -31
[35] CCC(=O)Nc1ccc2c(c1)OC[C@H](C)N(C(=O)CC)C[C@@H](C)[C@@H](OC)CN(C)C2=O
  -1.7 | 1 | -2
[36] CC(C)NC(=O)Nc1ccc2c(c1)C(=O)N(C)C[C@H](C)[C@@H](CN(C)C)O2
  -0.2 | 0 | 0
[37] COc1cccc(S(=O)(=O)N(C)C[C@@H]2OCc3cn(nn3)CCCC(=O)N([C@@H](C)CO)C[C@@H]2C)c1
  1.8 | 0 | 1
[38] C[C@@H]1CN([C@@H](C)CO)C(=O)CCCn2cc(nn2)CO[C@@H]1CN(C)C(=O)Nc1ccc(C(C)(C)C)cc1
  -0.5 | -1 | 12
[39] CCCNC(=O)N1[C@H](CO)[C@@H](c2ccc(C3=CCCC3)cc2)[C@@H]1CN(C)C(C)=O
  -2.4 | -5 | -1
[40] CO[C@H]1CN(C)C(=O)c2cc(NC(=O)C3CCCC3)ccc2OC[C@@H](C)N(C(C)=O)C[C@H]1C
  -2.3 | 3 | 6

# An excerpt from above in order of their number in Ecoli rRNA inh RFP, ascending:
# Value order: Ecoli rRNA inh RFP | Ecoli rRNA inh | Ecoli rRNA inh OD600
[39] CCCNC(=O)N1[C@H](CO)[C@@H](c2ccc(C3=CCCC3)cc2)[C@@H]1CN(C)C(C)=O
  -2.4 | -5 | -1
[31] C[C@@H]1CN([C@H](C)CO)C(=O)CCCn2nncc2CO[C@@H]1CN(C)Cc1ccncc1
  -0.6 | 3 | 1
[32] CO[C@@H]1CN(C)C(=O)c2cc(NC(=O)C3CCCC3)ccc2OC[C@@H](C)N(Cc2ccc(F)cc2)C[C@H]1C
  3.6 | -4 | -2

# Next part.
# Value order: Ecoli rRNA inh RFP | Ecoli rRNA inh | Ecoli rRNA inh OD600
[41] Cc1ccc(S(=O)(=O)N(C)C[C@@H]2Oc3ccc(NC(=O)Nc4ccc(F)cc4)cc3CC(=O)N([C@@H](C)CO)C[C@@H]2C)cc1
  3.8 | 2 | -12
[42] CC(=O)N(C)C[C@H]1Oc2ccc(NS(C)(=O)=O)cc2C(=O)N(C)C[C@H]1C
  -5.0 | -9 | -11
[43] CCCC(=O)Nc1ccc2c(c1)OC[C@H](C)N(C(=O)c1ccccc1F)C[C@@H](C)[C@H](OC)CN(C)C2=O
  -2.9 | 2 | 4
[44] Cc1ccc(S(=O)(=O)Nc2ccc3c(c2)C(=O)N([C@H](C)CO)C[C@@H](C)[C@H](CN(C)C(=O)Nc2ccc4c(c2)OCO4)O3)cc1
  0.7 | 0 | 9
[45] COCC(=O)N(C)C[C@H]1Oc2ncc(C#CC(C)(C)O)cc2C(=O)N([C@@H](C)CO)C[C@@H]1C
  0.9 | 11 | 13
[46] COc1ccc(-c2ccc([C@@H]3[C@H]4CN(C(=O)Cc5ccccn5)CC(=O)N4[C@H]3CO)cc2)cc1
  -1.0 | -4 | 1

# Molecules above with two or more sulfur atoms (2):
# Value order: Ecoli rRNA inh RFP | Ecoli rRNA inh | Ecoli rRNA inh OD600
[3] C[C@@H]1CN([C@H](C)CO)C(=O)c2cc(NS(=O)(=O)c3ccccc3)ccc2O[C@H]1CN(C)S(=O)(=O)c1ccc(F)cc1
  -1.0 | -4 | -10
[5] C[C@@H]1CN([C@@H](C)CO)C(=O)c2cccc(NC(=O)Nc3ccccc3)c2O[C@H]1CN(C)S(=O)(=O)c1cccs1
  -0.9 | -3 | -8

# Quoted from the listing:
# Entry of cpd 42 under Ecoli rRNA inh OD600: -11
# Entry of cpd 46 under Ecoli rRNA inh: -4

# High-throughput results from PubChem.
